VDR inhibitor – inhibitors of human vitamin D receptor | P11473 | 400,000 compounds, 0.93% hits | Potency, µM, without a hit: max response, negative = inhibition, usual class: inhibitors | VDR-SRC2-3 peptide fluorescence polarization, 2 h | AID 504847; active means well fitted inhibition curve with a large enough effect; inconclusive means small, poorly fitted or top-dose-only effect, or another doubt; inactive means no such curve, though single readings can be large or run the other way; further: series mostly up to about 120 µM
Target sequence (P11473 whole entry, looked up): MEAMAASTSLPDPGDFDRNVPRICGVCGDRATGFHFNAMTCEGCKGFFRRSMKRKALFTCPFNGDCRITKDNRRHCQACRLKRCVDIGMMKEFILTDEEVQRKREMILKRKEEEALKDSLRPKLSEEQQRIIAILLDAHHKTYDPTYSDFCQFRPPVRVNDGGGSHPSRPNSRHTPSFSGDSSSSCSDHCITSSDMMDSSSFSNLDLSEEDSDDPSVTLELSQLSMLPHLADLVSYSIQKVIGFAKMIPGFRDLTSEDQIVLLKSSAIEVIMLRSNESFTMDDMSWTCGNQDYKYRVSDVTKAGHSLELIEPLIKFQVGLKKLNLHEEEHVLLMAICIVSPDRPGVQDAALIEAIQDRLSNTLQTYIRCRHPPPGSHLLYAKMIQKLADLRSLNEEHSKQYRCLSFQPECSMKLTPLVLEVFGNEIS
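Measured by FP: displacement of SRC2-3 coactivator peptide from VDR by library compounds, following a two-hour ambient incubation.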
* = called active by the depositor; ? = inconclusive; & = joins results of further samples. On the % scale 0 is the no-effect control and ±100 the full control effect; potency means the concentration at half of the fitted maximal effect. These rows are one share of the data; rates above refer to the full screens.

The opening 16 records, ahead of the listing:
SMILES | VDR inhibitor
COc1ccc(OC)c(S(=O)(=O)Nc2ccc3c(c2)C(=O)OC3)c1 | 3%
COC(=O)c1c(C)oc2ccc(N(C(C)=O)S(=O)(=O)c3ccccc3)cc12 | -12%
N#C/C(=C\c1ccc2c(c1)OCCO2)C(=O)NC1CCCCC1 | -8%
Cc1c(Cl)cccc1NC(=O)CCCn1nc(C)c2sc3ccccc3c2c1=O | 7%
CCOc1ccc(S(=O)(=O)N2CCC(C(=O)OC(C)C(=O)N(C)C3CCCCC3)CC2)cc1 (stereo not drawn) | -8%
Cc1ccccc1-c1nc2cc(Cl)ccc2o1 | -11%
CSc1nc(=S)n(-c2ccccc2)c(C)c1C(C)=O | -7%
Cc1cccc(OCC(=O)O/N=C(\N)c2ccccn2)c1 | 11%
C/C(=N\NC(=O)c1ccccc1-n1cccc1)C1CC1 | -7%
O=C(CSc1nnnn1C1CCCCC1)NCc1ccco1 | -4%
CCN(c1cccc(C)c1)S(=O)(=O)c1ccc(OC)c([N+](=O)[O-])c1 | 9%
CNC(=S)N(Cc1cccs1)Cc1cc2cc(OC)ccc2[nH]c1=O | -8%
COc1ccc(C(=O)NCC(=O)OCC(=O)N2N=C(c3ccc(Cl)cc3)CC2c2ccco2)cc1OC (stereo not drawn) | 5%
Cn1cc(S(=O)(=O)N2CCCCCC2)cc1C(=O)NCc1ccc(F)cc1 | 5%
COc1ccc(CSC(=N)N)cc1[N+](=O)[O-] | 7%
CCOc1ccc(NC(N)=O)cc1 | 25%

The list itself, repeating the preview:
SMILES | VDR inhibitor
COc1ccc(OC)c(S(=O)(=O)Nc2ccc3c(c2)C(=O)OC3)c1 | 3%
COC(=O)c1c(C)oc2ccc(N(C(C)=O)S(=O)(=O)c3ccccc3)cc12 | -12%
N#C/C(=C\c1ccc2c(c1)OCCO2)C(=O)NC1CCCCC1 | -8%
Cc1c(Cl)cccc1NC(=O)CCCn1nc(C)c2sc3ccccc3c2c1=O | 7%
CCOc1ccc(S(=O)(=O)N2CCC(C(=O)OC(C)C(=O)N(C)C3CCCCC3)CC2)cc1 (stereo not drawn) | -8%
Cc1ccccc1-c1nc2cc(Cl)ccc2o1 | -11%
CSc1nc(=S)n(-c2ccccc2)c(C)c1C(C)=O | -7%
Cc1cccc(OCC(=O)O/N=C(\N)c2ccccn2)c1 | 11%
C/C(=N\NC(=O)c1ccccc1-n1cccc1)C1CC1 | -7%
O=C(CSc1nnnn1C1CCCCC1)NCc1ccco1 | -4%
CCN(c1cccc(C)c1)S(=O)(=O)c1ccc(OC)c([N+](=O)[O-])c1 | 9%
CNC(=S)N(Cc1cccs1)Cc1cc2cc(OC)ccc2[nH]c1=O | -8%
COc1ccc(C(=O)NCC(=O)OCC(=O)N2N=C(c3ccc(Cl)cc3)CC2c2ccco2)cc1OC (stereo not drawn) | 5%
Cn1cc(S(=O)(=O)N2CCCCCC2)cc1C(=O)NCc1ccc(F)cc1 | 5%
COc1ccc(CSC(=N)N)cc1[N+](=O)[O-] | 7%
CCOc1ccc(NC(N)=O)cc1 | 25%
CCOC(=O)c1c(CC(C)C)csc1/N=C/C1C(=O)CC(C)(C)CC1=O | 20%
Cc1cccnc1Nc1nc(-c2ccc(O)cc2)cs1 | -10%
COc1ccc(/C=C2/N=C(SC3CCOC3=O)N(c3cccc(OC)c3)C2=O)cc1 (stereo not drawn) | -17%
Cc1c(C(=O)Nc2ccc(-c3nc4cc(Cl)ccc4o3)cc2)oc2ccccc12 | 0%
CC1(c2ccccc2)NC(=O)N(CC(=O)NCC2CCCO2)C1=O (stereo not drawn) | 4%
Cc1ccc(C(=O)NCc2occc2C(=O)O)o1 | 5%
O=C(N/N=C/c1coc2ccccc2c1=O)c1ccncc1 | 13%
CCOc1ccc(C(=O)N2CCCCC2CCN2CCOCC2)cc1 (stereo not drawn) | -1%
COc1cccc(CNC(=O)C2CCN(S(=O)(=O)N3CCC(C)CC3)CC2)c1 | 9%&-4%
Cc1nc(SCC(=O)O)c(C#N)c(-c2ccco2)c1C(=O)N(C)C | 2%
O=C(NCCc1ccc(F)cc1)c1ccc([N+](=O)[O-])cc1 | -5%
O=C(N[C@@H]1C/C=C\C[C@H](CC(=O)N(CCO)Cc2ccccc2)C(=O)NC[C@@H](c2ccccc2)OC1=O)OCC1c2ccccc2-c2ccccc21 | -5%
COc1ccc(S(=O)(=O)N2CCN(Cc3ccccc3)CC2)cc1 | -3%
O=C(NCCS(=O)(=O)N1CCN(c2ccc(F)cc2)CC1)C(c1ccccc1)c1ccccc1 | 3%
O=C(NCc1ccccn1)c1ccc(NC(=O)c2ccco2)cc1 | 1%
COc1cc(NC(=O)CSc2nc3c(C)ccc(C)c3cc2C)c(C(=O)O)cc1OC | -30%
CC(=O)c1c(C(C)=O)c(C)n(Cc2ccc(Cl)cc2)c1C | 15%
O=C(CCc1ccccc1)Nc1ncn[nH]1 | 11%
N#Cc1c[nH]n2c(NC3CCCC3)c(-c3cccc(Br)c3)nc12 | -2%
Nc1cccc2[nH]c(=O)c3ccccc3c12 | -7%
CC1=C(C(=O)OC2CCCCC2)C(c2ccc(C)o2)C2=C(CCCC2=O)N1 (stereo not drawn) | 7%
CC1(C)Cc2nc3sc4c(OCc5ccccc5)ncnc4c3cc2CO1 | 0%
CC(=O)c1sc(-c2ccc(F)cc2F)nc1C | 0%
CCC(CC)C(=O)Nc1nnc(S(=O)(=O)N2CCCCCC2)s1 | 1%&1%
Cc1ccc(CSCC(=O)NCc2cccs2)cc1 | 1%
Cc1ccc(NCc2nnc(SCC#N)o2)c(C)c1 | 11%
COc1ccc(OC)c(NC(=O)CN2C(=O)NC3(CCCc4ccccc43)C2=O)c1 (stereo not drawn) | 10%
O=C(O)CCCCC(=O)O | -7%
C[C@@H]1CN(S(=O)(=O)C(C)(C)C)[C@H](CCO)/C1=C\c1ccccc1 | -5%
CCc1cc2cc(C(=O)N3CCN(Cc4ccccc4)CC3)sc2s1 | -1%
CCOc1ccc2c(c1)C(C)=CC(C)(C)N2S(=O)(=O)c1ccc(F)cc1 | 20%
CN1CCN(NC(=O)CN2C(=O)/C(=C/c3ccccc3Cl)SC2=S)CC1 | 2%
O=C(NCc1ccco1)Nc1cccc(-c2ccccc2)c1 | 25%
Cc1cccc(CSC2=NCCN2C(=O)c2ccco2)c1 | -11%
Cc1cc(NC(=O)c2ccc(S(=O)(=O)N3CCCC3)cc2)nc2c1c(=O)oc1ccccc12 | 3%
CCOC(=O)C1(CCCc2ccccc2)CCN(CCCn2cccn2)CC1 | -5%
CC(OC(=O)CCc1nc2ccccc2c(=O)[nH]1)C(=O)NCc1ccc2c(c1)OCO2 (stereo not drawn) | 0%
COc1ccc(OC)c(-c2csc(NC(=O)CSc3nnnn3C)n2)c1 | -8%
OC1(c2nc3ccccc3[nH]2)CCCCC1 | -8%
Cc1oncc1C(=O)NC(C)C | 0%
CC(=O)Nc1ccc(NC(=O)CN2CCN(c3ccccn3)CC2)cc1 | -1%
Cc1cccc(C)c1NC(=O)CN(C)C(=O)C1CC1C (stereo not drawn) | 4%
Cc1nc2ccccc2c(=O)n1NC(=O)c1c(O)c2c(n(CC(C)C)c1=O)CCCC2 | 2%
O=C(CCNc1ccc(Cc2ccncc2)cc1)c1ccc([N+](=O)[O-])cc1 | ?
(further entries)
SMILES | VDR inhibitor
COC(=O)N/N=C/c1sc(N2CCCCC2)nc1-c1cccs1 | -7%
Cn1cccc1/C=N/NC(=O)c1ccc[n+]([O-])c1 | 13%
Cn1c(=O)oc2cc(S(=O)(=O)Nc3cccc4c3CCCC4)ccc21 | -8%
O=C(O)c1ccc(N2CCCC2=O)cc1 | -10%
COC(=O)CSc1nc2cc3c(cc2cc1C)OCO3 | -20%
COc1cccc(C(=O)NNC2=CC(=O)CC(C)(C)C2)c1 | 26%
CCOC(=O)C1=C(N)Oc2cc(O)ccc2C1c1ccc([N+](=O)[O-])cc1 (stereo not drawn) | -6%
CCc1ccccc1N(C(=O)c1snc(C(N)=O)c1N)C(C(=O)NCC1CCCO1)c1c[nH]c2ccccc12 (stereo not drawn) | 22%
COc1ccc(S(=O)(=O)N2CCc3ccccc32)cc1C(=O)N1CCC(C)CC1 | -4%
COCC(=O)N1CCC2(CCN(Cc3ccccc3)CC2)CC1 | -1%
Nc1nc(NCCCN2CCOCC2)nc(Nc2cccc(Cl)c2)c1[N+](=O)[O-] | -12%
Cc1ccc(N2CC(C(=O)OCC(=O)Nc3cccc(Cl)c3C)CC2=O)cc1 (stereo not drawn) | -12%
Cc1ccc(NC(=O)CCCn2c(=O)c3cccn3c3ccccc32)c(C)c1 | -9%
CCCc1cc(=O)[nH]c(N/N=C/C=C\c2ccccc2)n1 | 15%
O=S(=O)(c1cccs1)N1CCN(c2ccccc2Cl)CC1 | -13%
CNC(=O)COC(=O)/C=C/c1cn(-c2ccccc2)nc1-c1ccc(C)o1 | 4%
CSCCC(NC(=O)c1ccccc1)C(=O)N1CC=C(c2ccccc2)CC1 (stereo not drawn) | -4%
Cc1ccsc1CNCc1cc(Cl)ccc1O | ?
O=c1[nH]c(=O)c2[nH]c(=O)n(-c3ccccc3)c2[nH]1 | ?
CCCNC(=O)CN1C(=O)NC(CC)(c2ccc(F)cc2)C1=O (stereo not drawn) | 3%
Cc1cccc(S(=O)(=O)Nc2nc3ccccc3nc2NCc2ccco2)c1 | -16%
CCOC(=O)CON1C(=O)c2ccccc2C1=O | 14%
C[C@H](CO)N1C[C@H](C)[C@@H](CN(C)S(C)(=O)=O)Oc2c(NC(=O)Cc3ccccc3)cccc2C1=O | 6%
Cc1cccc2c1-c1sc(C(=O)Nc3ccccc3C(N)=O)cc1CO2 | 16%
COc1cccc(C(=O)Nc2ccc(Oc3cccc(C(F)(F)F)c3)nc2)c1 | -7%
O=C(NCC1CCCO1)/C(=C/c1cn(-c2ccccc2)nc1-c1cccnc1)NC(=O)c1ccccc1 (stereo not drawn) | -4%
CC(=O)c1cccc([N+](=O)[O-])c1 | -8%
CCC(NC(=O)c1ccccc1NC(=O)c1ccco1)C(=O)O (stereo not drawn) | 3%
Cc1ccc(C)c(S(=O)(=O)c2nnn3c2nc(N2CCCC2)c2sccc23)c1 | -7%
CCCc1ccccc1OCCNC(=O)c1cc(=O)n(C)c(=O)n1C | -14%
COC(=O)c1c(NC(=O)c2ccnn2C)sc(C)c1C | 2%
CC[C@@]1(C(=O)OC)N[C@H](CN(C)S(=O)(=O)c2ccc(C(F)(F)F)cc2)[C@@H]2C(=O)N(C)C(=O)[C@@H]21 | -19%
CCc1nn(C(C)C(=O)N(C)Cc2ccccc2)c(=O)c2cc3occc3n12 (stereo not drawn) | 1%
O=C(NC1CCCC1)C(Cc1ccccc1)n1cccc1 (stereo not drawn) | -8%
O=C(CN1C(=O)NC2(CCSC2)C1=O)NCc1ccccc1 (stereo not drawn) | 0%
Cc1ccc(CSCC(=O)N2CCN(c3ccc(F)cc3)CC2)cc1 | 4%&1%
CC(C)NC(=S)NC(=O)/C=C/c1cccc2ccccc12 | -23%
CCOc1ccccc1C(=O)NCC(c1cccs1)S(=O)(=O)c1ccc(F)c(C)c1 (stereo not drawn) | -4%
CC(C)(C)OC(=O)NCCCC1=CC2=CC(=O)C(C)(OC(=O)c3ccco3)C(=O)C2=CO1 (stereo not drawn) | 3%
Cc1ccc(S(=O)(=O)NCCC(C)C)cc1[N+](=O)[O-] | -9%
CCNC(=S)NNC(=O)c1cccs1 | -22%
COC(=O)C1=CN(C2CC2)C=C(C(=O)OC)C1c1ccccc1OC | 9%
O=C(CN1C(=O)NC2(CCCC2)C1=O)Nc1nc2c(F)cc(F)cc2s1 | -16%
O=C(Nc1ccnn1C1CCN(C(=O)c2ccccc2C(F)(F)F)CC1)C1CC1 | 13%
CCOC(=O)N1CCN(C(=O)COC(=O)Cc2ccc(Cl)cc2)CC1 | 5%
CCOC(=O)Cc1cc(=O)n2[nH]c(-c3ccc(C)cc3)cc2n1 | -11%
CC(=O)c1c(C)[nH]c(C(=O)OCC(=O)NCCC2=CCCCC2)c1C | 12%
O=C(CSc1nnc(CNC(=O)C23CC4CC(CC(C4)C2)C3)n1-c1ccccc1)Nc1ccc(F)cc1 | 2%
FC(F)(F)c1cc(-c2cccs2)n[nH]1 | 1%
CN1C(N)=NC(=O)/C1=C/c1ccc(OC(F)(F)F)cc1 | 10%
COc1ccccc1OCCCn1cc(C#N)c2ccccc21 | -5%
O=C(COc1ccc2ccc(=O)oc2c1)N1CCN(C(=O)C2COc3ccccc3O2)CC1 (stereo not drawn) | -12%
Cc1nc2cccc(C(=O)Oc3ccc([N+](=O)[O-])cc3)c2o1 | 1%
O=C(O)CCCNC(=O)c1cccc(C(=O)NCCCC(=O)O)n1 | -17%
CN(C(=O)COC(=O)c1cc(S(=O)(=O)N2CCOCC2)c(Cl)cc1Cl)C1CCS(=O)(=O)C1 (stereo not drawn) | -12%
CN(C)Cc1ccccc1-c1nccc(NCc2cccs2)n1 | 10%
COc1ccc(C2=Nn3c(nnc3-c3ccccc3Cl)SC2)cc1OC1CCOC1 (stereo not drawn) | -2%
Cn1c(=O)c2c(nc(-n3ccnc3)n2Cc2ccccc2)n(C)c1=O | 2%
O=C(COC(=O)Cc1ccsc1)NNC(=O)c1ccccc1 | -10%
O=C(CSc1nnnn1-c1ccccc1)CC(=O)Nc1ccc(Cl)cc1 | 5%
Later entries:
SMILES | VDR inhibitor
O=C(Nc1cc(Cl)c(Cl)cc1Cl)c1cccnc1 | -3%
COc1cccc(C(=O)NN=C2CCCC2)c1 | -2%
CNC(=O)c1ccsc1NC(=O)c1coc2ccccc2c1=O | -5%
O=S(=O)(Nc1cccc(-c2ccc(N3CCOCC3)nn2)c1)c1cc(C(F)(F)F)ccc1Cl | -6%

Looked up by compound from the list above:
SMILES | VDR inhibitor
CNC(=O)c1ccsc1NC(=O)c1coc2ccccc2c1=O | -5%
O=S(=O)(Nc1cccc(-c2ccc(N3CCOCC3)nn2)c1)c1cc(C(F)(F)F)ccc1Cl | -6%
